Bioassay records: PubChem BioAssay, Broad Institute
ALR H2O2 inh: inhibitors of human ALR sulfhydryl oxidase, primary screen, biochemical, H2O2 detection, HRP-luminol luminescence, single point; 290,000 tested, 3.8% active; FAD-linked sulfhydryl oxidase ALR (Homo sapiens), P55789; inhibition, % (test concentration not listed); purified ALR, DTT oxidation;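 active = mean and each replicate at 75% or more; inconclusive = only one of the two met; inactive = neither met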;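 also: stock transfer was 7.5 nL into about 7.5 µL; 0% = neutral wells and 100% = wells with inactivated enzyme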
Target sequence (P55789 whole entry, looked up): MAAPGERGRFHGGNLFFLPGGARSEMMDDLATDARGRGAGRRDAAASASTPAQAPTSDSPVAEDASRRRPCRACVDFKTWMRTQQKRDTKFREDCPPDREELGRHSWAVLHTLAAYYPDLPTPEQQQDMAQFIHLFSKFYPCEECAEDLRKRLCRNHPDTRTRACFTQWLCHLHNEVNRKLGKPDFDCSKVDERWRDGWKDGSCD
Ecoli rRNA inh: reduced GFP signal of wild-type E. coli, primary screen, bacterial rRNA inhibitor project, GFP/RFP fluorescence, OD600, single point | 350,000 tested, 1.6% active | AID 720706, 2013 | GFP signal change (wild-type ribosome), % (concentration not given with the values) | E. coli WT GFP vs humanized-ribosome RFP mutants, 24 h; active compounds read low; DMSO median 0, no signal -100;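 active = significant combined selectivity score with lowered wild-type GFP, culture density cut under 30%, mutant RFP and density less affected; inactive = any of these conditions unmet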; also: one replicate is shown; some compounds called inactive have numbers as strong as hits
T cruzi inh: inhibitors of intracellular T. cruzi growth, primary screen, luminescence, NIH3T3 host cells | T. cruzi beta-gal in NIH3T3, 90 h | 300,000 tested, 1.4% active | inhibition, % (test concentration not listed);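 active = mean inhibition across valid replicates above about 55%, limit read from the data; inconclusive = mean below that limit but half or more replicates reach it; inactive = mean below it, under half of replicates reach it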;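 also: signal also drops with host cell toxicity which is not excluded here; 0% = plate median of DMSO wells and 100% = zero luminescence signal; higher percent means less beta-gal luminescence so fewer parasites; stock transfer was 50 nL into about 50 µL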
Beta apoptosis: inhibitors of cytokine-induced beta cell apoptosis, primary screen, luminescence; protection from apoptosis, % (test concentration not listed); 300,000 tested, 0.8% active; AID 435005, 2010; INS-1E cytokine-induced death, ATP luminescence, 48 h; percent of positive-control rescue, neutral wells zero;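 active = all replicates at 75% or more, or half of them and the mean; inconclusive = half reach 75% but not the mean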;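 also: 0% = cytokine-treated negative control wells and 100% = positive control rescue; higher means more ATP so stronger rescue from cytokine killing; wells of about 40 µL received 100 nL stock; the first replicate is given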
AF4-AF9 inh: inhibitors of AF4 peptide binding to AF9, primary screen, biochemical, AlphaScreen, biotin-AF4 peptide, FLAG-AF9, single point; 350,000 tested, 0.47% active; Protein AF-9 (Homo sapiens), P42568; inhibition, % at 10 µM;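 active = every replicate reaching a set inhibition limit, whatever the replicate mean, cut at about 25% in these data; inconclusive = mean inhibition reaches that limit but some replicates miss it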;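 also: 0% = plate neutral control median and 100% = total signal loss; the record names both 10 and 1 µM as test concentration; the first replicate is given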
Target sequence (P42568 whole entry, looked up): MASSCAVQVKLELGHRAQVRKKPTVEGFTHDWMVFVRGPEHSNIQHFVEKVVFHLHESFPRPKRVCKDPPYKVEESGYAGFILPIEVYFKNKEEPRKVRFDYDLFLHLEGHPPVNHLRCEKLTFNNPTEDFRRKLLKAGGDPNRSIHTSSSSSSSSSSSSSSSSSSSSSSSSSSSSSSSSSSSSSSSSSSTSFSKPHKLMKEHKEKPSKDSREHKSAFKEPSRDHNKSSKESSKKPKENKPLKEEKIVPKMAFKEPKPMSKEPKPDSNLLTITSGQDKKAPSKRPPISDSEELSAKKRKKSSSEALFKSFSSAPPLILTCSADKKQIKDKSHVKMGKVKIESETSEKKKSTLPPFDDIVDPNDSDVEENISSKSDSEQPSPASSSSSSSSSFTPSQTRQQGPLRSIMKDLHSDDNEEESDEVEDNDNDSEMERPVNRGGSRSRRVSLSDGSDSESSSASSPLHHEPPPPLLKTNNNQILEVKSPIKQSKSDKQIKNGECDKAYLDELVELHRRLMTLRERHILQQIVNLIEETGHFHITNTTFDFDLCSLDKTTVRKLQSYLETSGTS
Calb FLC: C. albicans growth inhibition with fluconazole, primary screen, CaCi-2 strain, Alamar Blue fluorescence; C. albicans CaCi-2 (fluconazole-resistant clinical isolate) + fluconazole, 48 h; growth inhibition, % (test concentration not listed); 300,000 tested, 0.57% active;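 active = most replicates above 75%; inconclusive = exactly half above 75%; inactive = most below 75%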;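 also: all wells also contain fluconazole at 8 µg/ml as a sub-toxic cotreatment; 0% = median of DMSO wells and 100% = median of geldanamycin control wells; wells of about 8 µL received 7.5 nL stock; the first replicate is given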
FGF22 binding: binders of human FGF22 protein, primary screen, FGF22 synaptogenesis inhibitor project, biophysical, thermal shift, single point | Fibroblast growth factor 22 (Homo sapiens), Q9HCT0 | recombinant FGF22 thermal shift, SYPRO orange fluorescence; percent of sucrose octasulfate shift, DMSO zero | calls only at 9.99 µM | 340,000 tested, 1.5% active | AID 651658, 2012;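 active = melting point raised past a set limit in the mean and every replicate; inconclusive = no clear call; three in four hits are not shown here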
Target sequence (Q9HCT0 whole entry, looked up): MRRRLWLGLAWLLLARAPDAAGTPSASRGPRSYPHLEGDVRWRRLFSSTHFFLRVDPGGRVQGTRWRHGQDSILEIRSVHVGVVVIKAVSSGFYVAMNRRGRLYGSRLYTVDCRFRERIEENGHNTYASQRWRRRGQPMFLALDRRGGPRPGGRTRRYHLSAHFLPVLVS
RanGTP-Impb inh: inhibitors of RanGTP-importin-beta interaction, primary screen, biochemical, FRET, CFP-Ran, YFP-importin-beta, homogeneous | 300,000 tested, 1.1% active | Ran GTPase (GTP-bound) - importin-beta complex | inhibition, % (test concentration not listed) | cell-free CFP-Ran/YFP-importin-beta FRET ratio;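 active = most replicates above 15%; inconclusive = exactly half above 15%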;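 also: 0% = DMSO wells and 100% = Ran loaded with GDP instead of GTP; wells of about 40 µL received 100 nL stock; the first replicate is given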
Ecoli rRNA inh OD600: recorded beside Ecoli rRNA inh, whose call it bears; OD600 change, %; measured here: OD600 growth;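 optical density of the mix in the first replicate; 0 = DMSO median and -100 = no signal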
Ecoli rRNA inh RFP: second read-out of Ecoli rRNA inh, no call of its own (marks repeat the call); RFP signal change, %; measured here: RFP humanized mutant strains;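 first replicate; 0 = DMSO median and -100 = no signal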
Active calls of the source: *; i = inactive; ? = inconclusive; . = not tested or not shown. Not all compounds are listed; count on the stated rates, not on these rows.

SMILES	ALR H2O2 inh	Ecoli rRNA inh	Ecoli rRNA inh OD600	Ecoli rRNA inh RFP	T cruzi inh	Beta apoptosis	AF4-AF9 inh	Calb FLC	FGF22 binding	RanGTP-Impb inh
CSc1ccc(S(=O)(=O)NCC(=O)OCC(=O)NCCc2ccccc2)cc1[N+](=O)[O-]	-8	-1	-4	-0.5	-7	3	-5.2	5	i	-4.8
O=C(Nc1ccc(Cl)cc1)OCCn1nnnc1C(c1ccccc1Cl)N1CCOCC1 (centres undefined)	-7	.	.	.	-45	0	.	5	.	1.1
O=C(Nc1ccccc1)c1ccccc1NS(=O)(=O)c1ccc(Cl)s1	8	.	.	.	-28	52	.	-2	.	-0.4
CCC(=O)c1ccc(-c2ccccc2)cc1	.	.	.	.	-5	-3	.	8	.	-0.5
CC1(C)CC(=O)C2=C(C1)N(c1ccc(Cl)cc1)C(=O)C2(O)C(F)(F)F (centres undefined)	17	.	.	.	-2	0	.	11	.	7.8
COc1cc(C(=O)NCCC(=O)N2CCCCC2)cc(OC)c1OC	-18	8	2	8.0	-11	-16	0.8	2	i	-2.0
C=CCn1c(SCc2c(F)cccc2Cl)nnc1-c1ccco1	1	.	.	.	8	-6	.	-11	.	4.7
COc1ccc(NC(=S)NC(=O)C2CCCCC2)cc1	9	6	7	-2.3	-11	-5	0.9	-12	i	5.5
CC(C)N(C)CCOC(=O)/C=C/c1ccccc1	-9	.	.	.	-5	1	.	-2	.	-2.6
CCOC(=O)c1ccccc1NC(=O)COC(=O)CCCOc1ccccc1	-1	0	7	-2.3	-5	-3	-4.0	-1	i	.

Next section.
SMILES	ALR H2O2 inh	Ecoli rRNA inh	Ecoli rRNA inh OD600	Ecoli rRNA inh RFP	T cruzi inh	Beta apoptosis	AF4-AF9 inh	Calb FLC	FGF22 binding	RanGTP-Impb inh
Cc1nc(N)c2c(Cc3cccc4ccccc34)nn(C(C)(C)C)c2n1	-23	-1	-3	1.2	36	-3	-0.1	-6	i	1.1
COc1ccc(/C=C(/NC(=O)c2ccc(OC)c(OC)c2)C(=O)NCCc2c[nH]c3ccccc23)cc1	-1	-2	-1	2.0	9	12	4.8	3	i	-4.7
Cc1occc1-c1nnc(SCC(=O)Nc2nccs2)n1Cc1ccco1	-1	.	.	.	-6	-4	.	3	.	4.3
NC(=O)c1cc2ccccc2o/c1=N\NC(=O)c1ccncc1	-3	13	12	0.1	-16	-8	-1.9	6	.	1.1
COC(=O)CSc1cc(SCC(=O)OC)c(C#N)c(SCC(=O)OC)c1	-8	.	.	.	9	-4	.	-1	.	-1.7
COc1cccc(C(=O)N2CCC(CCC(=O)Nc3cccc(C)c3)CC2)c1	-1	-4	-4	0.8	-4	.	-4.9	-2	i	3.5
COc1cc2c(cc1NC(=O)c1ccc(C)c([N+](=O)[O-])c1)oc1ccccc12	.	.	.	.	-13	-3	.	17	.	-0.1
CC1=C(/C=N/Nc2ccc([N+](=O)[O-])cc2[N+](=O)[O-])C(C)(C)CCC1	-3	.	.	.	16	18	.	-8	.	-4.4
COc1ccc(CCNC(=O)Cn2nnc(-c3ccc(OC)c(OC)c3)n2)cc1OC	-3	-5	1	-2.3	-10	-3	-0.1	-7	i	0.5
COc1cc(C(=O)OCC(=O)NCc2ccco2)cc(OC)c1OC	-5	.	.	.	-2	-11	.	-5	.	5.5

The list continues.
SMILES	ALR H2O2 inh	Ecoli rRNA inh	Ecoli rRNA inh OD600	Ecoli rRNA inh RFP	T cruzi inh	Beta apoptosis	AF4-AF9 inh	Calb FLC	FGF22 binding	RanGTP-Impb inh
Oc1ccc(Nc2nc(-c3ccc(O)cc3)cs2)cc1	100*	.	.	.	-17	24	.	6	.	6.5
CCOc1ncccc1C(=O)OCC(=O)Nc1ccc(C(N)=O)cc1	.	11	7	-2.4	0	-3	0.8	-2	i	0.5
COc1ccc(C(=O)Nc2cc(Cl)cc(Cl)c2)c(OC)n1	1	.	.	.	-3	5	.	-6	.	-4.3
CC(=O)c1cc(C#N)c(N2CCN(c3ccccc3)CC2)nc1C	34	2	8	-1.3	2	-2	0.5	0	i	-0.3
O=c1[nH]c(C2CCCN(S(=O)(=O)c3cccc(Cl)c3)C2)nc2c1nnn2Cc1ccc2c(c1)OCCO2 (centres undefined)	-5	-1	-14	6.4	11	1	-5.4	0	i	1.8
COc1ccccc1C(=O)Nc1ccc(S(=O)(=O)N2CCCC2)cc1	-13	.	.	.	2	7	.	-2	.	-3.3
C=CCn1c(SC(C)C(=O)NCc2ccc3c(c2)OCO3)nc2scc(-c3ccccc3)c2c1=O (centres undefined)	-22	.	.	.	35	5	.	15	.	0.1
CC1Cc2ccccc2N1S(=O)(=O)c1ccc2c(c1)n(C)c(=O)c(=O)n2C (centres undefined)	1	.	.	.	7	4	.	10	.	1.1
CN(C)S(=O)(=O)Nc1ccc(Oc2ccccc2)cc1	-5	-23	-39	1.1	3	5	-0.5	-25	i	0.8
O=C(Cc1ccc(Cl)cc1)N1CCOCC1	-5	4	10	4.3	-24	0	-1.6	-7	i	-0.2

Following part.
SMILES	ALR H2O2 inh	Ecoli rRNA inh	Ecoli rRNA inh OD600	Ecoli rRNA inh RFP	T cruzi inh	Beta apoptosis	AF4-AF9 inh	Calb FLC	FGF22 binding	RanGTP-Impb inh
Cc1cc(C)n(/N=C/c2ccc(C(C)C)cc2)c(=O)c1C#N	2	.	.	.	7	6	-4.5	-6	i	-1.4
Cc1ccc(NC(=O)CNCC2CCCCC2)cc1S(=O)(=O)N(C)C	9	1	1	-0.6	6	-6	4.3	-12	i	-1.5
CCN1CCN(C(=O)N[C@@H](C(=O)N[C@@H]2C(=O)N3C(C(=O)O)=C(CSc4nnnn4C)CS[C@H]23)c2ccc(O)cc2)C(=O)C1=O	-7	.	.	.	.	2	-19	.	i	.
CCOc1ccc(N2CC(C(=O)Nc3c(C)n(C)n(-c4ccccc4)c3=O)CC2=O)cc1 (centres undefined)	-3	14	7	-4.1	-17	-5	-1.1	-2	i	2.9
COCCCn1c(=O)cc(C)[nH]c1=S	.	16	11	-0.6	-11	-9	0.4	-7	i	-5.1
COc1ccc(Cl)cc1NC(=O)CN(C)CC(=O)NC(C)c1ccccc1 (centres undefined)	-6	-19	-26	1.5	2	3	0.0	0	i	5.1
CCOC(=O)C1CC(=O)c2cc(OC)c(OC)cc2C1 (centres undefined)	-14	11	8	-4.7	8	-9	-7.2	2	i	-2.1
N#CCc1c(C#N)c(N)nc(N2CCCC(O)C2)c1C#N (centres undefined)	.	11	-12	5.1	-6	-5	0.6	-8	i	3.5
CSc1nsc(SCC(=O)Nc2cc(C(=O)O)ccc2C)n1	9	3	8	2.2	-24	8	-4.0	18	i	6.3
O=C(NCc1ccncc1)c1ccc(Br)o1	-2	.	.	.	6	-5	.	-6	.	-0.8

Next part.
SMILES	ALR H2O2 inh	Ecoli rRNA inh	Ecoli rRNA inh OD600	Ecoli rRNA inh RFP	T cruzi inh	Beta apoptosis	AF4-AF9 inh	Calb FLC	FGF22 binding	RanGTP-Impb inh
CCC1(C)SC(NC(C)=O)=NN1C(C)=O (centres undefined)	-1	18	14	3.1	6	.	2.7	11	i	3.3
CCc1ccc(N2CC(C(=O)NNC(=O)c3ccc(F)cc3)CC2=O)cc1 (centres undefined)	-15	6	5	2.1	-2	2	-1.3	.	.	2.5
COc1ccc2cc(C(C)C(=O)O)ccc2c1 (centres undefined)	-16	-2	9	-3.2	.	-6	-2.2	.	i	.
Cc1cc(C)n(-c2ccc(C(=O)OCC(=O)N(CC(C)C)C3CCS(=O)(=O)C3)cc2)n1 (centres undefined)	.	.	.	.	-10	-1	.	0	.	-0.7
CN(C(=O)Nc1ccc(Cl)cc1)c1c2c(nn1C)CCCC2	2	.	.	.	2	-17	.	30	.	-2.0
CCOc1cc(N2CCOCC2)c(OCC)cc1NC(=O)Cn1[nH]c(=O)c2ccccc2c1=O	-45	.	.	.	9	.	.	8	.	-4.3
COc1cccc(C(=O)NC2CCN(CC(=O)Nc3c(C)cc(C)cc3C)CC2)c1	-12	.	.	.	1	6	.	-25	.	-1.3
COc1ccc(/C=C2\SC(=S)N(CCCC(=O)Nc3ccccn3)C2=O)cc1OC	-3	.	.	.	24	-11	.	12	.	-15
O=C(Cc1cccs1)N(Cc1ccco1)C1(C(=O)NC2CCCC2)CCCCC1	7	.	.	.	18	5	.	-3	.	-2.8
Cc1cccc(Oc2ccccc2NC(=O)c2cnccn2)c1	-1	.	.	.	-1	-1	.	0	.	3.5

(list continues)
SMILES	ALR H2O2 inh	Ecoli rRNA inh	Ecoli rRNA inh OD600	Ecoli rRNA inh RFP	T cruzi inh	Beta apoptosis	AF4-AF9 inh	Calb FLC	FGF22 binding	RanGTP-Impb inh
COc1cc(/C=C2\SC(=S)N(CCCCC(=O)O)C2=O)ccc1OS(=O)(=O)c1ccc(C)cc1	-16	2	4	1.9	8	-3	1.2	-4	i	.
N#C/C(=N/Nc1ccccc1[N+](=O)[O-])C(N)=S	-1	-3	4	-2.8	1	0	-5.2	-4	i	?
CC(C)CN(C(=O)C1CCCCC1)C1CCS(=O)(=O)C1 (centres undefined)	0	5	13	1.0	-3	-1	-3.4	-7	i	-1.2
COc1ccc(C(C)(C)C)cc1NC(=O)C1C2C=CC(C2)C1C(=O)O (centres undefined)	45	.	.	.	10	-2	.	-8	.	5.6
CC(C)(C)OC(=O)NCCC(=O)N/N=C/c1cccc2nccnc12	-7	-3	9	-1.9	.	.	2.3	-1	i	2.0
COc1cc(C(=O)Nc2ccc(Oc3ncnc4sc(-c5ccccc5)cc34)cc2)cc(OC)c1OC	-25	.	.	.	3	4	.	11	.	?
COc1ccc(-c2nc3cnccn3c2NC(C)(C)CC(C)(C)C)cc1O	100*	0	-2	-1.0	-5	20	3.2	-6	i	6.7
O=C(CCS(=O)(=O)c1ccccc1)Nc1nc2c(s1)CCCC2	.	-2	-24	-4.1	-23	-8	7.7	3	i	1.1
O=C(Nc1ccc(C(=O)O)cc1)/C(=C\c1ccccc1)NC(=O)c1ccc(Br)cc1	.	-49	-65	-10	-8	0	-2.0	30	i	2.4
